Bioassay records as filed in PubChem BioAssay.
YopH inh: YopH tyrosine phosphatase inhibitors, primary screen, biochemical, fluorescence Ex485/Em525. AID 898, 2007. YopH tyrosine phosphatase [Yersinia enterocolitica]. inhibition, %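 (about 10 µM by stock and volumes)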. 140,000 compounds, 0.16% hits;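 active = inhibition of 50% or more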;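 also: controls were vehicle for no effect and minimum signal wells for full effect; inactives centre near -20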
Mtb betalactam: beta-lactam sensitization of Mtb H37Rv, H37Rv; AID 434955, 2010; inhibition, % at 25 µM; 330,000 compounds, 0.27% hits; M. tuberculosis H37Rv growth with meropenem, percent inhibition; hits of this screen are not shown here;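 active = about 74% or more and at least 40 points above the plate without the antibiotic, then above 30% in a dose series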;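 also: growth measured after seven days incubation then overnight dye step; 0% = bacteria only wells and 100% = bacteria with antibiotic; twin plates without the antibiotic show which effects depend on it; some results filed as inactive read as strong as hits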
RecA intein inh: Mtb RecA intein splicing inhibitors, primary screen, biochemical, fluorescence, HTS; Protein RecA (Mycobacterium tuberculosis (strain ATCC 25618 / H37Rv)), P9WHJ3; cell-free RecA intein splicing; inhibition, %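 (about 9 µM by stock and volumes)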; 290,000 compounds, 0.75% hits; in the data active = inhibition above about 30%;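 also: 0% = vehicle wells and 100% = reference inhibitor control wells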
Target sequence (P9WHJ3 whole entry, looked up): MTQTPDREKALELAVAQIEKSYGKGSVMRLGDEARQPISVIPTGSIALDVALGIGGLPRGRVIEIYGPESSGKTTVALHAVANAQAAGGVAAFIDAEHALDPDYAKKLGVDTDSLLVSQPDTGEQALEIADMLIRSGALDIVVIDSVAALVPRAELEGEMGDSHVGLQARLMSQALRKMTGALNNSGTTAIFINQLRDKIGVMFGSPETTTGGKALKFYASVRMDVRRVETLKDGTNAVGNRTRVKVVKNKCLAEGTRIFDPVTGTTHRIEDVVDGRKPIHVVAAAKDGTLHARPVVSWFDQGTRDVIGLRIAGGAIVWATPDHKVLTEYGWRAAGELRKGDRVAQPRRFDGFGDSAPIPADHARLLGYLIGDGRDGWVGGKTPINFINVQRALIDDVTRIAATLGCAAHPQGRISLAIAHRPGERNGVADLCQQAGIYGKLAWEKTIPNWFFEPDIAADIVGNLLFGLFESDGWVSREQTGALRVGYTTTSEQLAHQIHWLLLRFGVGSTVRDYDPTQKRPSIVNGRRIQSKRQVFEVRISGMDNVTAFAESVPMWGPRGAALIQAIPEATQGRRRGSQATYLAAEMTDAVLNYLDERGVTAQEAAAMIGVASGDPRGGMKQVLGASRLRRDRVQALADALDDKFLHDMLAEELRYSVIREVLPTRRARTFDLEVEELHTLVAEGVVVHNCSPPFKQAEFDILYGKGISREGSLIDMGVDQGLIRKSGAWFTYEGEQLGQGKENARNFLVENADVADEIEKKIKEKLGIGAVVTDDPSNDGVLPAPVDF
Arbovirus inh: antivirals against arbovirus infection, primary screen, cell-based, full library, 10K replicate subset; inhibition, % at 10 µM; 200,000 compounds, 0.37% hits; arbovirus infection cell-based antiviral screen; AID 1251, 2008;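 active = inhibition from about 30%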;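 also: bluetongue infection of BSR cells; cell survival read as ATP light after 72 h; 0% = infected wells without compound and 100% = uninfected wells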
Mtb H37Rv: M. tuberculosis H37Rv growth inhibitors, H37Rv strain (AID 1626) | M. tuberculosis H37Rv growth inhibition; higher % means a stronger effect | one-dose inhibition, % at 10 µM; IC50 in µM for titrated hits | 220,000 compounds, 0.95% hits;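 active = confirmed in a dose series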;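 also: bacteria incubated seven days before Alamar blue readout; 0% = bacteria only wells and 100% = bacteria with antibiotic wells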
Arbovirus inh repeat: second read-out of Arbovirus inh, no call of its own (marks repeat the call); inhibition, %; measured here: 10K subset replicate screen; many hits read low in the repeat;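 first of two repeat runs on a subset; 0% = infected and 100% = uninfected wells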
Active calls of the source: *; . = no result given.

SMILES	YopH inh	Mtb betalactam	RecA intein inh	Arbovirus inh	Mtb H37Rv	others
COC(=O)[C@H](CCSC)NC(=O)Nc1ccc(OC)cc1OC	-17	7	-0.9	-4	-5%
COCc1cc(C)nc(NC2CCCCC2)c1C#N	-10	0	.	-7	2%
C=CCNC(=O)C1CC(=O)N(c2ccc(OCC(=O)Nc3ccccc3)cc2)C1 (stereo not given)	-21	9	1.8	8	0%
C=CCn1c(=O)/c(=C/c2ccc(C)o2)s/c1=C(/C#N)C(=O)c1ccccc1	-39	2	0.2	-2	3%
O=C(Cn1cnc2ccccc21)Nc1ccccc1-c1ccccc1	.	-4	-6.3	.	.
CCOC(=O)c1c[nH]c2nc(C)ccc2c1=O	.	-1	-1.2	0	0%
c1cncc(-c2csc(-c3cccnc3)n2)c1	.	5	1.1	.	.
CN(C)c1ccc(P(=O)(COc2ccc([N+](=O)[O-])cc2)c2ccc(N(C)C)cc2)cc1	.	-4	1.1	.	3%
O=C1N=C(N2CCOCC2)S/C1=C/c1cccs1	-42	40	8.3	-3	2%
Oc1ccc(O)c(Cc2nc3ccccc3s2)c1	.	-2	31*	-32	9%
CON1C(=O)C(=O)N(OC)C2CCCCC21 (stereo not given)	-30	.	2.0	1	.
CCCN(CC(=O)Nc1ccc(C(N)=O)cc1)CC(=O)Nc1ccc(F)c(F)c1F	.	1	-4.5	.	.
Cc1cc(C(=O)OCC(=O)c2ccc(Br)s2)no1	-19	-10	1.5	4	3%
O=C(C1CCN(S(=O)(=O)c2cccs2)CC1)N(c1ccccn1)C1CCCCC1	.	0	2.1	0	2%
CCOc1ccc(C(=O)NCc2ccncc2)cc1OCC	-41	-2	0.8	5	-8%	Arbovirus inh repeat=-3
CS(=O)(=O)N(CC(=O)NCCC1=CCCCC1)C1CCCCC1	-25	-7	2.6	1	-11%
Clc1nnc(NN=C2CCCC2)c2ccccc12	-22	89	2.7	2	-5%
CN(c1ccccc1)S(=O)(=O)c1cccc(C(=O)NNC(=O)c2ccncc2)c1	.	-15	-1.4	.	.
O=C(O)c1ccc2nc(-c3ccccc3)c(-c3ccccc3)nc2c1	-54	-4	-0.8	-4	2%
COc1ccc(NC(=O)CN(C)C(=O)c2cc(CN3C(=O)c4ccccc4C3=O)ccc2OC)cc1	.	-10	-0.6	.	.
CC(C)c1ccc(NC(=O)C(c2ccccc2)N(C)C(=O)c2cnccn2)cc1 (stereo not given)	.	-3	2.4	-2	-6%
O=C(c1c(F)cccc1F)N1CCCc2ccccc21	.	-2	-1.2	.	.
Cc1ccccc1NC(=O)CSCc1cc(=O)n2ccsc2n1	.	-4	-0.5	.	.
O=C(O)C1C(c2ccccc2)C(C(=O)OCc2ccco2)C1c1ccccc1 (stereo not given)	-28	0	-0.4	0	0%	Arbovirus inh repeat=3
Cc1ccc(/C=C/C(=O)N2CCCC(C)C2)cc1 (stereo not given)	-29	18	0.2	-7	-1%
CCOC(=O)Cc1cc(=O)c2cc(C)ccc2[nH]1	.	0	-2.4	.	0%
Cc1ccc(OCc2ccc(C(=O)O)o2)c([N+](=O)[O-])c1	-40	-6	0.3	-6	-9%
CCCC(=O)OCCNc1cc(Sc2nc3ccccc3[nH]2)c2nonc2c1[N+](=O)[O-]	-17	100	96*	-43	68µM*
O=C(O)CCn1cnc2ccccc2c1=O	-56	-5	-1.8	12	-7%
CC1(C(=O)NC2CCCC2)CCC(=O)N1Cc1ccccc1 (stereo not given)	-10	0	1.1	2	-2%
C=CCS(=O)(=O)c1cccc2cccnc12	.	10	.	6	6%
CC(C)NC(=O)NC(=O)CSc1ccccc1F	-18	-11	-0.5	-1	8%
Cc1ccc(-c2csc3nnc(SCC(=O)N4CCN(Cc5ccccc5)CC4)n23)cc1	-18	25	7.6	-4	3%
Cc1ccc(C(=O)Nc2cccc(C(F)(F)F)c2)cc1Nc1ccccn1	.	34	4.4	.	25%
O=C(Nc1ccc(NC(=O)c2cccs2)c(Cl)c1)c1ccco1	.	4	-0.3	-15	-3%
COc1ccc(C(=O)NC(=S)Nc2cccnc2)cc1OC	.	2	-0.5	-3	-8%
CCN(CC)S(=O)(=O)c1ccc2oc(C(=O)NC3CCCc4ccccc43)c(C)c2c1 (stereo not given)	-24	9	0.6	-3	2%
O=C(Nc1ccc(N2CCN(Cc3ccccc3)CC2)cc1)c1ncn[nH]1	-12	-26	0.8	-5	-3%
COc1ccccc1N(CC(O)CN1CCCCC1)S(=O)(=O)c1ccc(C)cc1 (stereo not given)	.	0	5.0	.	.
O=C(Nc1ccc(F)cc1)C1CCN(c2ncnc3c2nc2n3CCCCC2)CC1	.	2	2.4	.	.
Cc1cccc(C(=O)OCC(=O)NCCCc2ccccc2)c1	.	-13	3.3	3	5%
CCOC(=O)n1c(=O)n(Cc2ccccc2)c2ccccc21	-56	-1	6.8	-6	-8%
COc1ccccc1OCCCCNC(C)(C)C	-47	-2	1.6	-2	3%
CC/C(=C/c1sc2ccccc2[n+]1CC)SC	-10	0	4.2	10	-3%
COc1cccc(/C=C2\SC(=S)N(NC(=O)c3ccncc3)C2=O)c1	.	93	-8.4	5	-10%
CCN1CCN(C(=O)CCS(=O)(=O)c2cc3c(cc2Cl)NC(=O)CO3)CC1	.	4	0.1	.	.
COc1ccc(N2CCC(CNC(=S)Nc3c(C)cc(C)cc3C)C2)cc1 (stereo not given)	.	7	6.5	.	6%
CCCCCCOC(=O)c1ccc(N)cc1	.	93	1.7	.	.
COC(=O)CCC(=O)COc1ccccc1C#N	-18	-13	-0.6	6	-2%
O=C(CCc1nc2ccccc2[nH]1)N1CCc2ccccc2C1	11	-3	2.7	-6	.	Arbovirus inh repeat=-5
COc1cc2c(cc1NS(=O)(=O)N1CCCC1)oc1ccccc12	-11	-3	6.0	0	-6%
CCOc1ccc(-c2cc(N)n(S(=O)(=O)c3ccc(OC)cc3)n2)cc1	-17	0	0.5	-3	3%
CCOC(=O)c1ccc(NC(=S)N2CCCC(C(=O)OCC)C2)cc1 (stereo not given)	.	0	5.3	-1	33%
Cc1ccc(S(=O)(=O)NCCCCCC(=O)Nc2cccc(C)c2)cc1	-28	13	0.7	-4	-1%
Cc1cccc(CSc2ccc3nnc(-c4cccs4)n3n2)c1	-28	-6	-1.4	-14	12%
Cc1cc(C(=O)CSc2nc3ccccc3[nH]2)c(C)n1C	-47	-9	0.2	6	-4%
CSc1ccccc1C(=O)Nc1cccc([N+](=O)[O-])c1	.	3	0.2	2	6%
CC(C)NC(=O)CN(Cc1ccccc1)S(=O)(=O)c1ccccc1	-39	7	-5.6	9	1%
Cc1ccc(NC(=O)C2=C(C(=O)O)CCCC2)cc1Br	.	86	1.2	.	.
CC(C)(C)c1ccc(OCC(O)CS(=O)(=O)c2ccccn2)cc1 (stereo not given)	-9	-4	0.7	-2	4%	Arbovirus inh repeat=-3
Remaining list, next part.
SMILES	YopH inh	Mtb betalactam	RecA intein inh	Arbovirus inh	Mtb H37Rv	others
COc1ccc(NC(=O)Nc2cc(F)ccc2C)cc1	.	-1	-1.1	-2	-6%
COc1ccc(S(=O)(=O)Nc2ccc3c(c2)CCC3)cc1	.	4	-0.2	10	8%
CC(C)(C)[C@H]1C=C(C(=O)Nc2ccccc2)O[C@@H](OCCCCO)C1	.	28	-1.9	.	0%
O=C1C=C(NCc2ccco2)C2(CCCCC2)O1	-24	-11	-2.5	1	-6%
Nn1c(-c2ccccc2)nc2ccccc2c1=O	.	-5	1.0	3	-3%
O=C(Nc1ncn[nH]1)c1ccc(Cl)c(S(=O)(=O)Nc2ccc(Cl)cc2)c1	-27	-4	-2.7	2	-2%
O=C(C(NS(=O)(=O)c1cccs1)c1ccccc1)N1CCN(c2ccccc2F)CC1 (stereo not given)	-10	-3	-0.6	8	3%
Nc1ncc(Br)cc1S(=O)(=O)NC1CCCCC1	.	5	3.3	.	.
Cc1[nH]c(=O)[nH]c(=O)c1CSc1nnc(CCCCCNC(=O)OC(C)(C)C)o1	-29	-21	2.5	7	-13%
NC(=O)COc1ccc(C(=O)/C=C2/C(=O)Nc3ccccc32)cc1	.	20	-2.6	.	.
CC(C)OCCCN(CC(O)c1ccccc1)CC(O)c1ccccc1 (stereo not given)	-4	0	-0.2	12	3%
Cc1c(CC(=O)N[C@@H](C)C(=O)O)c(=O)oc2cc3c(cc12)CCC(C)(C)O3	.	10	-1.3	.	.
Cn1c(N)c(C(=O)COC(=O)CNS(=O)(=O)c2cccc(Cl)c2)c(=O)n(C)c1=O	-21	-9	2.2	7	0%
COc1ccc(-n2c(Cc3cc(=O)[nH]c(=O)[nH]3)nnc2SCC(=O)Nc2ccccc2)cc1	-53	10	-0.8	3	.	Arbovirus inh repeat=6
Cc1cc(C(=O)N/N=C/c2ccc(-c3cccc(Cl)c3Cl)o2)n[nH]1	-1	1	-1.2	-13	-2%
CCCn1nc(Oc2nc(NC(C)C)nc(N(C)C)n2)ccc1=O	.	5	.	-3	2%

Structural class, the compounds so far containing a halogen
SMILES	YopH inh	Mtb betalactam	RecA intein inh	Arbovirus inh	Mtb H37Rv	others
CCCN(CC(=O)Nc1ccc(C(N)=O)cc1)CC(=O)Nc1ccc(F)c(F)c1F	.	1	-4.5	.	.
Cc1cc(C(=O)OCC(=O)c2ccc(Br)s2)no1	-19	-10	1.5	4	3%
Clc1nnc(NN=C2CCCC2)c2ccccc12	-22	89	2.7	2	-5%
O=C(c1c(F)cccc1F)N1CCCc2ccccc21	.	-2	-1.2	.	.
CC(C)NC(=O)NC(=O)CSc1ccccc1F	-18	-11	-0.5	-1	8%
Cc1ccc(C(=O)Nc2cccc(C(F)(F)F)c2)cc1Nc1ccccn1	.	34	4.4	.	25%
O=C(Nc1ccc(NC(=O)c2cccs2)c(Cl)c1)c1ccco1	.	4	-0.3	-15	-3%
O=C(Nc1ccc(F)cc1)C1CCN(c2ncnc3c2nc2n3CCCCC2)CC1	.	2	2.4	.	.
CCN1CCN(C(=O)CCS(=O)(=O)c2cc3c(cc2Cl)NC(=O)CO3)CC1	.	4	0.1	.	.
Cc1ccc(NC(=O)C2=C(C(=O)O)CCCC2)cc1Br	.	86	1.2	.	.
COc1ccc(NC(=O)Nc2cc(F)ccc2C)cc1	.	-1	-1.1	-2	-6%
O=C(Nc1ncn[nH]1)c1ccc(Cl)c(S(=O)(=O)Nc2ccc(Cl)cc2)c1	-27	-4	-2.7	2	-2%
O=C(C(NS(=O)(=O)c1cccs1)c1ccccc1)N1CCN(c2ccccc2F)CC1 (stereo not given)	-10	-3	-0.6	8	3%
Nc1ncc(Br)cc1S(=O)(=O)NC1CCCCC1	.	5	3.3	.	.
Cn1c(N)c(C(=O)COC(=O)CNS(=O)(=O)c2cccc(Cl)c2)c(=O)n(C)c1=O	-21	-9	2.2	7	0%
Cc1cc(C(=O)N/N=C/c2ccc(-c3cccc(Cl)c3Cl)o2)n[nH]1	-1	1	-1.2	-13	-2%

An excerpt (hit frequency here may not be typical).
